Bioassay records (PubChem)
YjeE inh: qHTS Assay for Inhibitors of YjeE. tRNA threonylcarbamoyladenosine biosynthesis protein TsaE (Escherichia coli (strain …. purified YjeE, fluorescence polarisation of a bound ADP probe. Potency, µM. 71,000 tested, 0.05% active. AID 605, 2007; active = well fitted falling curve; inconclusive = weaker or top-dose-only fall, or a rising curve; inactive = flat or poorly fitted curve;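 further: top concentration of the series not given in the record; excess ADP was the control for the full effect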
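Fluorescence polarization of a BODIPY Texas Red–ADP probe (2 uM) bound to purified YjeE (10 uM) was read after 15 min room-temperature incubation with compounds. Loss of polarization marks inhibitors; ADP serves as titrated control.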
Bst PK mod: Pyruvate Kinase; partly purified Bacillus stearothermophilus pyruvate kinase, luminescence ATP production; ribose 5-phosphate activator present at AC10; Potency, µM; 51,000 tested, 1.2% active; AID 361, 2006; in the data active means potency below about 11 µM; inconclusive means mostly about 12 µM to 25 µM; inactive means weaker than that;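 the screen sought inhibitors and activators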;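 further: potency means the concentration at half of the fitted maximal effect; scaled between full activation by ribose 5 phosphate and full inhibition by luteolin; about four in five hits inhibit and the cells do not say which; series up to 57 µM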
Numbers without * were called inactive.

A first look (4 entries):
What do the screens show for `CN1[C@H](CC(=O)c2ccccc2)CCC[C@H]1C[C@H](O)c1ccccc1`?
YjeE inh: inactive

Results for CC1CN(Cc2nc3c(c(=O)n(C)c(=O)n3C)n2CCN2CCOCC2)CC(C)O1 (configuration not stated) ?
YjeE inh: inactive; Bst PK mod: >57

How did COc1ccc(S(=O)(=O)N(C)CC(=O)N2CCC(C(N)=O)CC2)cc1Cl do in these assays?
YjeE inh: inactive; Bst PK mod: >57

Results for Cc1sc2nc3n(c(=O)c2c1C)CCCS3 ?
YjeE inh: inactive

All compounds of this part, previewed entries included:
What do the screens show for `CN1[C@H](CC(=O)c2ccccc2)CCC[C@H]1C[C@H](O)c1ccccc1`?
YjeE inh: inactive

Results for CC1CN(Cc2nc3c(c(=O)n(C)c(=O)n3C)n2CCN2CCOCC2)CC(C)O1 (configuration not stated) ?
YjeE inh: inactive; Bst PK mod: >57

How did COc1ccc(S(=O)(=O)N(C)CC(=O)N2CCC(C(N)=O)CC2)cc1Cl do in these assays?
YjeE inh: inactive; Bst PK mod: >57

Results for Cc1sc2nc3n(c(=O)c2c1C)CCCS3 ?
YjeE inh: inactive

Results for Cc1ccc(S(=O)(=O)Cn2nnnc2C(c2ccccc2)N2CCN(c3ncccn3)CC2)cc1 (configuration not stated) ?
YjeE inh: inactive; Bst PK mod: >11

How did CC1=C(C(=O)OC(C)C)C(c2ccccn2)n2ncnc2N1 (configuration not stated) do in these assays?
YjeE inh: inactive

What do the screens show for `CS(=O)(=O)N1CCN(C(=O)C2c3ccccc3Oc3ccccc32)CC1`?
YjeE inh: inactive; Bst PK mod: >57

What do the screens show for `CCOC(=O)Nc1ccc(C)cc1Br`?
YjeE inh: inactive; Bst PK mod: >57

Results for CC1=CS/C(=C(/C#N)C(=O)N2CCOCC2)N1c1ccccc1 ?
YjeE inh: inactive

Results for CCOC(=O)N1CCN(Cc2c(F)cccc2Cl)CC1 ?
YjeE inh: inactive

Results for CCOC(=O)Cc1csc(NC(=O)CSc2nnc(C(C)C)n2CC)n1 ?
YjeE inh: inactive; Bst PK mod: >57

How did COc1ccc(Cn2c(-c3ccco3)nc3oc4cc(OC)ccc4c(=O)c3c2=O)cc1 do in these assays?
YjeE inh: inconclusive; Bst PK mod: >57

What do the screens show for `C=CCNc1oc(-c2ccc(OC)cc2)nc1C#N`?
YjeE inh: inactive

Results for Cc1cc(C)nc(NC(=O)Cc2cccs2)n1 ?
YjeE inh: inactive; Bst PK mod: >57

How did CC(=O)Nc1nonc1C(=O)N1CCC(C)CC1 do in these assays?
YjeE inh: inactive; Bst PK mod: >57

What do the screens show for `COc1cc2[nH]c(=O)n(CCC(=O)N3CCN(c4cc(Cl)ccc4C)CC3)c(=O)c2cc1OC`?
YjeE inh: inactive; Bst PK mod: >57

What do the screens show for `C[C@H](N)C(=O)OC(C)(C)Cc1ccc(Cl)cc1`?
YjeE inh: inactive

Results for c1cncc(-c2nnc(C3CCCCC3)o2)c1 ?
YjeE inh: inactive; Bst PK mod: >57

Results for Cc1nc(CSc2nnc3scc(-c4ccc(Cl)cc4)n23)cs1 ?
YjeE inh: inactive; Bst PK mod: >57

How did O=C(CCN1c2ccccc2Sc2ccccc21)OCc1nnc(-c2ccccc2)o1 do in these assays?
YjeE inh: inactive; Bst PK mod: >57

What do the screens show for `CCOC(=O)c1[nH]c(C)c(/C(O)=C2\C(=O)C(=O)N(CCN(C)C)C2c2cccc(OC)c2OC)c1C` (configuration not stated)?
YjeE inh: inactive; Bst PK mod: >57

How did Cc1cc(C)c2c(=O)n(CC(=O)NCCCN3CCOCC3)sc2n1 do in these assays?
YjeE inh: inactive

What do the screens show for `Cc1ccccc1S(=O)(=O)Cc1ccc(C(=O)N2CCN(C3CCCCC3)CC2)o1`?
YjeE inh: inactive

What do the screens show for `Cc1cc(C)cc(CC2CC(=O)N(c3ccc4c(c3)OCCO4)C2=O)c1` (configuration not stated)?
YjeE inh: inactive; Bst PK mod: >57

Results for O=S(=O)(c1ccccc1)c1nc(-c2ccccc2)oc1NCc1cccnc1 ?
YjeE inh: inactive; Bst PK mod: >57

Results for CCn1cc(C(=O)NCCN(C)CCc2ccccc2)c(=O)c2cc(S(=O)(=O)N(C)C)ccc21 ?
YjeE inh: inactive; Bst PK mod: >57

What do the screens show for `CCC(=O)Nc1ccc(NC(=O)C23CC4CC(CC(C4)C2)C3)cn1`?
YjeE inh: inactive; Bst PK mod: >57

How did CC1(C)Cc2c(c(N3CCOCC3)nc3sc4c(=O)[nH]cnc4c23)CS1 do in these assays?
Bst PK mod: >26

How did COc1ccc(NC(=O)Nc2nnc(N3CCCCC3C)s2)cc1OC (configuration not stated) do in these assays?
YjeE inh: inactive

What do the screens show for `COCc1cc(C)nc2sc3c(=O)n(Cc4ccco4)nnc3c12`?
YjeE inh: inactive

How did O=c1o[nH]c(-c2ccccc2)c1C1=NCCCCC1 do in these assays?
YjeE inh: inactive; Bst PK mod: >57

Results for Clc1ccccc1-c1nnc2sc(-c3ccco3)nn12 ?
Bst PK mod: inconclusive

Results for CC(C)(Oc1ccc(Cl)cc1)C(=O)NCc1ccco1 ?
YjeE inh: inactive

How did CCN(CC)CC(O)Cn1c2ccccc2c2ccccc21 (configuration not stated) do in these assays?
YjeE inh: inactive

What do the screens show for `O=C(c1cc2ccccc2oc1=O)N(Cc1ccco1)CC1CCCO1` (configuration not stated)?
YjeE inh: inactive; Bst PK mod: >57

How did COc1cccc(C(=O)Nc2ccc(-c3nc4ccccc4o3)c(O)c2)c1 do in these assays?
YjeE inh: inactive

What do the screens show for `C=CCNC(=O)COc1ccc(Br)cc1Cl`?
YjeE inh: inactive

What do the screens show for `O=C(NCc1cccnc1)c1ccc(CS(=O)(=O)c2ccc(Br)cc2)o1`?
YjeE inh: inactive

How did Cc1ccccc1C1=NC(c2ccc(F)cc2F)ON1 (configuration not stated) do in these assays?
YjeE inh: inactive

Results for Cn1c(=O)cc(OCCCC(=O)NC2CCCC2)c2ccccc21 ?
YjeE inh: inactive; Bst PK mod: >57

What do the screens show for `COc1ccc(OC)c(C(=O)COC(=O)C2CC3CCCC(C2)C3=O)c1` (configuration not stated)?
YjeE inh: inactive; Bst PK mod: >57

How did Nc1ccc(-c2nnc(-c3ccc(-c4ccccc4)cc3)o2)cc1 do in these assays?
YjeE inh: inactive

Results for O=C(CSCc1ccc(Cl)cc1)NCC1CCCO1 (configuration not stated) ?
YjeE inh: inactive

How did O=C(c1ccco1)N1CCN(C(c2ccc(F)cc2)c2nnnn2CC2CCCO2)CC1 (configuration not stated) do in these assays?
YjeE inh: inactive; Bst PK mod: >57

What do the screens show for `O=C(CCC(=O)N1CCN(S(=O)(=O)c2ccccc2)CC1)c1cccs1`?
YjeE inh: inactive; Bst PK mod: >57

For convenience, 4 of the compounds above:
How did Nc1ccc(-c2nnc(-c3ccc(-c4ccccc4)cc3)o2)cc1 do in these assays?
YjeE inh: inactive

Results for O=C(CSCc1ccc(Cl)cc1)NCC1CCCO1 (configuration not stated) ?
YjeE inh: inactive

How did O=C(c1ccco1)N1CCN(C(c2ccc(F)cc2)c2nnnn2CC2CCCO2)CC1 (configuration not stated) do in these assays?
YjeE inh: inactive; Bst PK mod: >57

What do the screens show for `O=C(CCC(=O)N1CCN(S(=O)(=O)c2ccccc2)CC1)c1cccs1`?
YjeE inh: inactive; Bst PK mod: >57

The list continues.
What do the screens show for `CCc1nnc(NC(=O)C2CCN(C(=O)NC3CCCCC3)CC2)s1`?
YjeE inh: inactive; Bst PK mod: >57

What do the screens show for `COc1ccc(Nc2nc(C(=O)NCCCN3CCOCC3)cs2)cc1`?
YjeE inh: inactive; Bst PK mod: >57

How did Cc1cccc(OC(C)C(=O)N(Cc2cccs2)C2CCS(=O)(=O)C2)c1C (configuration not stated) do in these assays?
YjeE inh: inactive; Bst PK mod: >57

Results for COc1ccccc1N1CCN(C(=O)CCCn2c(=O)[nH]c3ccsc3c2=O)CC1 ?
YjeE inh: inactive

What do the screens show for `COc1ccc(S(=O)(=O)N(CC(=O)N2CCOCC2)c2cc(Cl)ccc2OC)cc1OC`?
YjeE inh: inactive; Bst PK mod: >57

What do the screens show for `O=C(NC1CCCCC1)c1cccnc1C(=O)O`?
YjeE inh: inactive; Bst PK mod: >57

Results for Nc1nc(-c2ccc3c(c2)CCCC3)cs1 ?
YjeE inh: inactive; Bst PK mod: inconclusive

What do the screens show for `CCC[C@@H]1C[C@@]1(CCC)C(NC(=O)c1ccccc1)c1cccc(Cl)c1` (some centres not stated)?
YjeE inh: inactive

What do the screens show for `CC1CN(c2cc(=O)n(Cc3ccc(F)cc3)c(=O)[nH]2)CC(C)O1` (configuration not stated)?
YjeE inh: inactive

Results for CCCOC(=O)c1ccc(NC(=O)C2C3C=CC(O3)C2C(=O)O)cc1 (configuration not stated) ?
YjeE inh: inactive

Results for CCOC(=O)C1=C(C)Nc2nc(SC)nn2C1c1ccc(C(=O)OC)cc1 (configuration not stated) ?
YjeE inh: inactive; Bst PK mod: >57

What do the screens show for `N#Cc1cc2c(nc1SCC(=O)N1CCCCC1)CCCC2`?
YjeE inh: inactive

How did O=C(CC(c1ccccc1)c1cc(Br)ccc1O)NCCN1CCOCC1 (configuration not stated) do in these assays?
YjeE inh: inactive; Bst PK mod: >57

How did O=C(NC(c1ccccc1)c1ccccc1)C1CCCN(S(=O)(=O)c2cnc[nH]2)C1 (configuration not stated) do in these assays?
YjeE inh: inactive

How did O=C(NC1CCCCC1)C1CC(O)CN1C(=O)OCc1ccccc1 (configuration not stated) do in these assays?
YjeE inh: inactive; Bst PK mod: >57

Results for COC(=O)CSc1nnc(-c2ccc(OC)cc2OC)o1 ?
YjeE inh: inactive

How did CC1Cc2nc(SCC(=O)Nc3ccc4c(c3)OCCO4)n(C)c(=O)c2S1 (configuration not stated) do in these assays?
YjeE inh: inactive; Bst PK mod: >57

How did CN(C)c1cc[n+](Cc2ccccc2)cc1 do in these assays?
YjeE inh: inactive; Bst PK mod: >57

Results for Cc1nc2nc3c(c(=O)n2[nH]1)CCC3 ?
YjeE inh: inactive; Bst PK mod: >57

How did CC1CN(c2cc(=O)n(-c3ccccc3)c(=O)[nH]2)CC(C)O1 (configuration not stated) do in these assays?
YjeE inh: inactive

How did Cc1nc2nc[nH]n2c(=O)c1NC(=O)CC12CC3CC(CC(C3)C1)C2 do in these assays?
YjeE inh: inactive; Bst PK mod: >57

How did CCn1ncc(Br)c1C(=O)Nc1cc(C)ccc1F do in these assays?
YjeE inh: inactive; Bst PK mod: >57

What do the screens show for `COc1cc(C(=O)N2CCC(c3nc(-c4cccnc4)no3)CC2)cc(OC)c1OC`?
YjeE inh: inactive; Bst PK mod: >57

How did NS(=O)(=O)c1ccc(C(=O)O)cc1 do in these assays?
YjeE inh: inactive; Bst PK mod: >11

What do the screens show for `COc1ccccc1CN(C(=O)c1ccco1)C(C(=O)NC1CCCC1)c1ccncc1` (configuration not stated)?
YjeE inh: inactive; Bst PK mod: >57

Results for CC(=O)Oc1cccc(N2C(=O)C3C4C=CC(C4)C3C2=O)c1 (configuration not stated) ?
YjeE inh: inactive

How did CC(C)N1CC23C=CC(O2)C(C(=O)OCc2ccccc2)C3C1=O (configuration not stated) do in these assays?
YjeE inh: inactive

How did Cc1ccc(C(=O)N(c2ccccn2)C(C)c2ccco2)cc1 (configuration not stated) do in these assays?
YjeE inh: inactive; Bst PK mod: >57

What do the screens show for `O=C(COC(=O)C1CCCCC1)Nc1ccc(N2CCCCC2)cc1`?
YjeE inh: inactive; Bst PK mod: >57

Results for COc1cc(SC)ccc1C(=O)OC1CCOC1=O (configuration not stated) ?
YjeE inh: inactive; Bst PK mod: >57

Results for O=C(CSc1n[nH]c(-c2ccccc2)n1)c1ccc(O)c(O)c1 ?
YjeE inh: inactive; Bst PK mod: >57

What do the screens show for `COc1ccc2[nH]cc(CCNc3ccnc(-c4ccc(C(=O)N(C)C)cc4)n3)c2c1`?
YjeE inh: inactive

How did CSc1nnc2c(n1)OC=Nc1ccccc1-2 do in these assays?
YjeE inh: inactive; Bst PK mod: >57

What do the screens show for `CCO/C=N/c1c(C#N)c2c(c(=S)n1C)COC(C)(C)C2`?
YjeE inh: inactive; Bst PK mod: >57

Results for O=C(Nc1ccc(F)cc1)C1CCCCC1 ?
YjeE inh: inactive; Bst PK mod: >57

Results for COc1ccccc1NC(=O)c1ccc(N)cc1 ?
YjeE inh: inactive; Bst PK mod: >57

Results for Clc1cccc2c1CN(C1=NCCN1)C2 ?
YjeE inh: inactive

Results for Cc1cc(NS(=O)(=O)c2ccc(NC(=O)NC3CCCCC3)cc2)no1 ?
YjeE inh: inactive; Bst PK mod: >57

How did O=C(Cn1cnc2c(nnn2Cc2ccccc2)c1=O)N1CCCc2ccccc21 do in these assays?
YjeE inh: inactive

What do the screens show for `O=C(NCc1cccs1)C1CCCN1C(=O)Nc1ccccc1` (configuration not stated)?
YjeE inh: inactive; Bst PK mod: >57

Results for Cc1cccc(NC(=O)Cn2c(C)c(C#N)c3ccccc32)c1C ?
YjeE inh: inactive; Bst PK mod: >57

What do the screens show for `CCc1nc(NCCN2CCOCC2)c2oc3ccccc3c2n1`?
YjeE inh: inactive; Bst PK mod: >57

Results for CC(=O)NC1C2CN3CCN(C2)CC1(Cc1ccccc1)C3 (configuration not stated) ?
YjeE inh: inactive; Bst PK mod: >57

Some of the compounds tested; the hit share may differ from the screen's.
